# Bioassay records as filed in PubChem.
# AF4-AF9 inh: blocks AF4 peptide binding to human AF9; inhibition, % at 10 µM; 350,000 tested, 0.47% active; AlphaScreen, biotin-AF4 peptide binding to FLAG-AF9; P42568;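 active means every replicate reaching a set inhibition limit, whatever the replicate mean, cut at about 25% in these data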;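 further: 0% = plate neutral control median and 100% = total signal loss; the record names both 10 and 1 µM as test concentration; the first replicate is given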
# Target sequence (P42568 whole entry, looked up): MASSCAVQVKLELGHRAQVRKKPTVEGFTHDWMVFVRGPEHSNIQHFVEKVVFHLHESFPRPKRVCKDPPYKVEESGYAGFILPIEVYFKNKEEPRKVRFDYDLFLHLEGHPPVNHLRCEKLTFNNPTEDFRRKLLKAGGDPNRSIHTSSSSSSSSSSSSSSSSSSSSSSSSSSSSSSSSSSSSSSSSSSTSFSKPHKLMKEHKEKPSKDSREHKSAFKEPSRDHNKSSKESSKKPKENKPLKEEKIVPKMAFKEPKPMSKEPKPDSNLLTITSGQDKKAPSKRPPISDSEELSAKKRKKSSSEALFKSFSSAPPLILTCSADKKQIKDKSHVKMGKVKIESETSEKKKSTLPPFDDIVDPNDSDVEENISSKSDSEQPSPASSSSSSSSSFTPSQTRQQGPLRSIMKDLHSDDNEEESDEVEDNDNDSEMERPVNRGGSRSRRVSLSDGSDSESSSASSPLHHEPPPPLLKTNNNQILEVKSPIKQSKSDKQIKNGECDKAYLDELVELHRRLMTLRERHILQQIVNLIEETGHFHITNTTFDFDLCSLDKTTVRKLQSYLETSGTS
# Numbers without * were called inactive; & = joins results of further samples. The list is partial; rates above refer to the full screens.
AF4-AF9 inh	compound
-2.2	COc1cccc(S(=O)(=O)N2CC[C@@H]3[C@H](CO)N(C)c4ccc(C#Cc5cccnc5)cc4[C@@H]32)c1
-0.3	C[C@H]1CN([C@@H](C)CO)C(=O)c2cc(-c3cccc(F)c3)cnc2O[C@@H]1CN(C)C(=O)Nc1cc(F)ccc1F
-1.4	CC=Cc1ccc2n(c1=O)C[C@H]1[C@H](CO)[C@@H](C(=O)NCCc3cn(C)cn3)N(C(=O)CC)[C@@H]21 (mixture of isomers)
0.7	COc1ccc2c3c(n(C)c2c1)[C@H](CO)N(C(=O)c1ccccn1)CC31CN(C(=O)Cc2ccccc2)C1
-2.5	C[C@@H]1CCCCO[C@@H](CN(C)S(=O)(=O)c2cccs2)[C@@H](C)CN([C@H](C)CO)C(=O)c2cc(NC(=O)CCC(F)(F)F)ccc2O1
1.2	O=S1(=O)N[C@@H](Cc2ccccc2)COc2cccc(N3CCSCC3)c21
2.5	Cc1noc(C)c1NC(=O)Nc1ccc2c(c1)CC(=O)N([C@H](C)CO)C[C@H](C)[C@@H](CN(C)S(=O)(=O)c1ccc(F)cc1)O2
0.7	C[C@H](NC(=O)C[C@@H]1C[C@@H]2c3cc(NC(=O)C4CCOCC4)ccc3O[C@@H]2[C@@H](CO)O1)c1ccccc1
-2.1	O=C(NCc1ccc(F)c(F)c1)C1Cc2c(-c3ccc4c(c3)OCO4)ccnc2O1 (centres undefined)
-0.2	CCOC(=O)N(C)C[C@H]1OCc2ccccc2-c2c(n(C)c3ccccc23)C(=O)N([C@@H](C)CO)C[C@H]1C
-9.8	C[C@@H]1CN([C@@H](C)CO)C(=O)c2cc(NC(=O)Cc3cn(C)c4ccccc34)ccc2O[C@H]1CN(C)S(=O)(=O)c1cn(C)cn1
-1.8	CN(C)C(=O)c1cccc(-c2ccc([C@H]3[C@@H](CO)N4C(=O)CN(C(=O)Cc5ccccc5)C[C@@H]34)cc2)c1
4.4	O=C(NCCN1CCC(n2c(=O)[nH]c3ccccc32)CC1)c1ccc2ccccc2c1
0.0	COc1ccc(NC(=O)COC(=O)c2ccc3c(c2)OCCO3)cc1
11.9	C[C@@H]1CN([C@H](C)CO)C(=O)c2cccc(NC(=O)c3nc4ccccc4s3)c2O[C@@H]1CN(C)Cc1ccc2c(c1)OCO2
1.4&-2.0	O=S(=O)(c1ccccc1F)N1[C@@H]2CNC[C@H]1C2c1ccc(-c2ccncc2)cc1 (some centres undefined)
8.0	COc1ccc(CN(C)C[C@H]2OCCCC[C@@H](C)Oc3ccc(NC(=O)Nc4ccc5c(c4)OCO5)cc3C(=O)N([C@H](C)CO)C[C@@H]2C)cc1
7.3	C[C@@H]1CN([C@H](C)CO)C(=O)Cc2cc(NC(=O)CCCN(C)C)ccc2O[C@@H]1CN(C)Cc1ccc(-c2ccccc2)cc1
-5.5	Cc1nn(C)cc1NC(=O)C[C@@H]1CC[C@@H]2[C@@H](COc3ccc(NC(=O)NC(C)C)cc3C(=O)N2C)O1
-3.8	Cc1ccccc1-c1cnc2c(c1)C(=O)N([C@H](C)CO)C[C@@H](C)[C@@H](CN(C)CC1CCOCC1)O2
0.5	C[C@H]1CN([C@@H](C)CO)C(=O)c2cc(NC(=O)CCCN(C)C)ccc2O[C@@H]1CN(C)S(=O)(=O)c1ccc(Cl)cc1
-3.5	CC(C)NC(=O)N[C@@H]1C[C@@H]2O[C@H](CO)CC[C@@H]2O[C@@H]1CCc1ccc(-c2ccc(F)cc2)cc1
11.4	CC(C)CC(N)c1csc(Nc2ccc(C(=O)NCCCO)cn2)n1 (centres undefined)
3.4	CC(C)NC(=O)N(C)C[C@H]1OCCCC[C@H](C)Oc2ccc(N(C)C)cc2C(=O)N([C@H](C)CO)C[C@@H]1C
-2.2	O=C(N[C@@H]1CC[C@@H](CCNC(=O)C2CCC2)O[C@H]1CO)c1ccncc1
-5.3	O=C(C[C@@H]1CC[C@H](NS(=O)(=O)c2ccccc2)[C@@H](CO)O1)N1CCc2ccccc2C1
-0.7	C[C@@H]1CN([C@H](C)CO)C(=O)c2cc(N(C)C)ccc2O[C@H]1CN(C)Cc1ccc(C(F)(F)F)cc1
1.8	CN(C)C(=O)c1cc2c(c(-c3cccc(-c4ccccc4F)c3)n1)[C@H](CCO)N(S(C)(=O)=O)C2
1.7	C[C@@H]1CN([C@@H](C)CO)C(=O)Cc2cc(NS(=O)(=O)c3cn(C)cn3)ccc2O[C@@H]1CN(C)S(=O)(=O)c1cccs1
0.2	C/C=C/c1ccc2c(c1)O[C@@H](CN(C)Cc1cncnc1)[C@H](C)CN([C@@H](C)CO)S2(=O)=O
-0.9	C[C@H]1CN([C@@H](C)CO)C(=O)Cc2cc(NC(=O)c3ccncc3)ccc2O[C@H]1CN(C)CC1CCCCC1
1.0	CC(=O)N(C)C[C@H]1Oc2cc(C#C[C@H](C)O)ccc2S(=O)(=O)N([C@H](C)CO)C[C@@H]1C
2.1	CC=Cc1ccc2n(c1=O)C[C@H]1[C@H](CO)[C@@H](C(=O)NCCC)N(Cc3cccc(F)c3)[C@@H]21 (mixture of isomers)
2.6	CC1(C)OC(=O)C2=C(C[C@@H](CCc3ccccc3)O[C@@H]2c2ccc(Cl)cc2)O1
-1.6	CO[C@H]1CN(C)C(=O)c2cc(NC(=O)C3CC3)ccc2OC[C@H](C)N(CC2CCCC2)C[C@H]1C
19.7	CCNC(=O)c1cc2c(c(-c3cccc(-c4ccccc4F)c3)n1)[C@H](CCO)N(C(=O)CC1CC1)C2
-1.4	C[C@H]1CN([C@@H](C)CO)S(=O)(=O)c2ccc(-c3cccc(C(=O)N(C)C)c3)cc2O[C@H]1CN(C)C
4.5	COCC#Cc1ccc2c(c1)O[C@H](CN(C)Cc1ccccc1)[C@H](C)CN([C@@H](C)CO)S2(=O)=O
10.9	COc1ccccc1CN1CC[C@@H]2[C@H]1c1cc(C3=CCCCC3)ccc1N[C@@H]2CO
5.2	Cc1ccc(C)c(C(O)c2ncc(-c3ccccc3F)[nH]2)c1 (centres undefined)
0.6	CC(C)NC(=O)Nc1ccc2c(c1)C(=O)N([C@H](C)CO)C[C@H](C)[C@H](CN(C)C(=O)CCCN(C)C)OCCCC[C@@H](C)O2
4.5	COc1ccc(NC(=O)N2CC(=O)N3[C@H](CO)[C@@H](c4ccc(/C=C/c5ccccc5)cc4)[C@H]3C2)cc1
-2.6	C[C@@H]1CN([C@H](C)CO)C(=O)c2cccc(NS(=O)(=O)c3cccs3)c2O[C@H]1CN(C)CC1CCCCC1
-0.2	COc1ccc(CN(C)C[C@H]2Oc3ccc(NS(=O)(=O)c4ccc(F)cc4)cc3C(=O)N([C@@H](C)CO)C[C@H]2C)cc1
-4.5&-7.3	COc1ccc(S(=O)(=O)N2[C@@H]3CNC[C@H]2C3c2ccc(-c3cccc(OC)c3)cc2)cc1 (some centres undefined)
-0.1	CCCNC(=O)C[C@H]1CC[C@@H]2[C@H](COc3ccc(NC(=O)NCC)cc3C(=O)N2C)O1
2.4	C=CCOc1cccn2c(N(C)C(=O)c3ccncc3)c(CC)nc12
-4.0	O=C(Cc1ccccn1)N[C@@H]1CC[C@H](CCNS(=O)(=O)c2cccc(F)c2)O[C@@H]1CO
-1.4	COC(=O)C[C@H]1CC[C@@H]2[C@H](COc3ccc(NC(=O)c4cccc(F)c4)cc3C(=O)N2C)O1
2.5	C[C@H](CO)N1C[C@H](C)[C@H](CN(C)C(=O)Nc2ccc(F)cc2)Oc2ccc(NC(=O)Cc3cn(C)c4ccccc34)cc2CC1=O

# Reprinted from above for reference:
AF4-AF9 inh	compound
2.1	CC=Cc1ccc2n(c1=O)C[C@H]1[C@H](CO)[C@@H](C(=O)NCCC)N(Cc3cccc(F)c3)[C@@H]21 (mixture of isomers)
2.6	CC1(C)OC(=O)C2=C(C[C@@H](CCc3ccccc3)O[C@@H]2c2ccc(Cl)cc2)O1
-1.6	CO[C@H]1CN(C)C(=O)c2cc(NC(=O)C3CC3)ccc2OC[C@H](C)N(CC2CCCC2)C[C@H]1C
19.7	CCNC(=O)c1cc2c(c(-c3cccc(-c4ccccc4F)c3)n1)[C@H](CCO)N(C(=O)CC1CC1)C2
-1.4	C[C@H]1CN([C@@H](C)CO)S(=O)(=O)c2ccc(-c3cccc(C(=O)N(C)C)c3)cc2O[C@H]1CN(C)C
4.5	COCC#Cc1ccc2c(c1)O[C@H](CN(C)Cc1ccccc1)[C@H](C)CN([C@@H](C)CO)S2(=O)=O
10.9	COc1ccccc1CN1CC[C@@H]2[C@H]1c1cc(C3=CCCCC3)ccc1N[C@@H]2CO
5.2	Cc1ccc(C)c(C(O)c2ncc(-c3ccccc3F)[nH]2)c1 (centres undefined)
0.6	CC(C)NC(=O)Nc1ccc2c(c1)C(=O)N([C@H](C)CO)C[C@H](C)[C@H](CN(C)C(=O)CCCN(C)C)OCCCC[C@@H](C)O2
4.5	COc1ccc(NC(=O)N2CC(=O)N3[C@H](CO)[C@@H](c4ccc(/C=C/c5ccccc5)cc4)[C@H]3C2)cc1
-2.6	C[C@@H]1CN([C@H](C)CO)C(=O)c2cccc(NS(=O)(=O)c3cccs3)c2O[C@H]1CN(C)CC1CCCCC1
-0.2	COc1ccc(CN(C)C[C@H]2Oc3ccc(NS(=O)(=O)c4ccc(F)cc4)cc3C(=O)N([C@@H](C)CO)C[C@H]2C)cc1

# New compounds follow
AF4-AF9 inh	compound
0.2	CCOc1ccc(OCCC(=O)N(CCOC)c2c(N)n(Cc3ccccc3)c(=O)[nH]c2=O)cc1
-2.5	CN(C)C(=O)C[C@@H]1C[C@@H]2c3cc(NC(=O)C4CCOCC4)ccc3O[C@@H]2[C@H](CO)O1
7.8	C[C@@H]1CN([C@H](C)CO)S(=O)(=O)c2ccc(/C=C/c3ccccc3)cc2O[C@H]1CN(C)C(=O)NC1CCCC1
0.7	O=C(NCc1ccc(F)cc1)[C@H]1[C@H](CO)[C@H]2Cn3c(ccc(-c4cccnc4)c3=O)[C@@H]1N2
0.7	CO[C@H]1CN(C)C(=O)c2ccc(NC(=O)C3CCCC3)cc2OC[C@H](C)N(CCC(F)(F)F)C[C@H]1C
-0.5	CN1C(=O)c2cc(NC(=O)Cc3ccccc3)ccc2OC[C@@H]2O[C@H](CC(=O)NC3CCC3)CC[C@H]21
-2.0	CC(=O)Nc1cncc(-c2ccccc2CO)n1
0.4	Cc1ccccc1S(=O)(=O)N1CCCCN2[C@H](CO)[C@@H](c3ccc(-c4cccnc4)cc3)[C@H]2C1
-2.1	CO[C@H]1CN(C)C(=O)c2ccc(NC(=O)C3CC3)cc2OC[C@H](C)N(Cc2cccnc2)C[C@@H]1C
-1.4	CCc1nn(CC(=O)NCCCN2CCOCC2)c(=O)c2cc3c(OC)cccc3n12
3.4	C[C@@H]1CCCCO[C@H](CN(C)C(=O)Nc2ccc(F)cc2)[C@@H](C)CN([C@@H](C)CO)C(=O)c2cc(NC(=O)c3ccccc3)ccc2O1
-2.5	C[C@H]1CN([C@@H](C)CO)C(=O)c2cc(-c3cccc(C(=O)N(C)C)c3)cnc2O[C@H]1CN(C)C
-2.7	O=C(NC1CCC1)[C@@H]1[C@@H](CO)[C@@H]2Cn3c(ccc(-c4cncnc4)c3=O)[C@H]1N2CCc1ccccc1
-2.5	CN1CCN(C(=O)C[C@H]2CC[C@@H]3[C@H](COC[C@H](O)CN3Cc3cccc(Cl)c3)O2)CC1
-0.9	C[C@@H]1CN([C@H](C)CO)C(=O)CCCn2cc(nn2)CO[C@H]1CN(C)C
-0.3	O=C(c1cccnc1)N1CC(=O)N2[C@H](CO)[C@H](c3ccc(/C=C/c4ccccc4)cc3)[C@H]2C1
-2.3	Cc1noc(C)c1NC(=O)N(C)C[C@@H]1Oc2ccc(NC(=O)NC3CCCCC3)cc2CC(=O)N([C@H](C)CO)C[C@@H]1C
13.6	COc1cccc(S(=O)(=O)N2CCCCN3[C@@H](CO)[C@@H](c4ccc(C#CC5CC5)cc4)[C@@H]3C2)c1
-4.9	OC(c1ccc(F)c(F)c1)c1nc(-c2ccc(F)c(Cl)c2)cs1 (centres undefined)
0.1	COc1ccc2c3c(n(C)c2c1)[C@@H](CO)N(C(=O)C1CCCC1)CC31CCN(C(=O)CN(C)C)CC1
-0.7	C[C@@H]1CN([C@@H](C)CO)C(=O)c2cc(NS(=O)(=O)c3ccc(F)cc3)ccc2O[C@@H](C)CCCCO[C@@H]1CN(C)S(=O)(=O)c1ccc(Cl)cc1
-2.6	N#C[C@H]1[C@@H](c2ccccc2-c2cccc(F)c2)[C@@H](CO)N1C(=O)C1CC1
12.0	C(=C\c1ccccc1)/CN1CCN(C(c2nnnn2-c2ccc3c(c2)OCCO3)C2CC2)CC1 (centres undefined)
0.4	CO[C@@H]1CN(C)C(=O)c2cc(NC(=O)C3CC3)ccc2OC[C@H](C)N(Cc2cc(F)ccc2F)C[C@@H]1C
-3.4	Cc1noc(C)c1NC(=O)N(C)C[C@@H]1Oc2c(NC(=O)C3CCCCC3)cccc2C(=O)N([C@H](C)CO)C[C@H]1C
-0.4	CO[C@@H]1CN(C)C(=O)c2cc(NC(C)=O)ccc2OC[C@@H](C)N(Cc2cc(F)ccc2F)C[C@H]1C
-1.6	CCN(CC)C(=O)C1=C(C)N(Cc2ccc(OC)cc2)C(=O)C(CC(=O)NCCN2CCOCC2)C1 (centres undefined)
-6.5	C[C@@H]1CN([C@@H](C)CO)C(=O)c2cc(NC(=O)Cc3ccccc3)ccc2O[C@@H](C)CCCCO[C@@H]1CN(C)C
1.5	C=CCN(c1ccc(OC)cc1)S(=O)(=O)c1ccc(Cl)c(C(=O)OCC(=O)c2c(N)n(C)c(=O)n(C)c2=O)c1
-5.6	CCOC(=O)C1=C(C(=O)OCC)C2N(Cc3ccc(Br)cc3)c3ccccc3[C@@]23C[C@@H](C(=O)OC)N(S(=O)(=O)c2ccc(C(F)(F)F)cc2)C3=N1 (some centres undefined)
1.5	COc1cccc(S(=O)(=O)N2C[C@H](O)COC[C@H]3O[C@@H](CC(=O)N4CCN(c5ccccc5)CC4)CC[C@@H]32)c1
-2.1	COc1cccc(-c2cnc3c(c2)C(=O)N([C@H](C)CO)C[C@H](C)[C@H](CN(C)C(=O)Nc2ccc(F)cc2)O3)c1
0.9	O=C(C[C@H]1CC[C@@H](NC(=O)Nc2ccc3c(c2)OCO3)[C@H](CO)O1)NCc1ccc(Cl)cc1
